Bioassay records as filed in PubChem BioAssay.
WNV protease inh = WNV NS2B-NS3 proteinase inhibition; z-score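 (tested at a level between 10 and 100 µM)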; P06935; actives 0.18% (n = 65,000); WNV NS2B-NS3 protease, fluorogenic substrate Ex360/Em465; stronger effect = lower value;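 active = z-score at -3 or under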;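 note: score is relative to mean and spread of the compound wells of a plate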
Target sequence (P06935 1371-1501 limits assumed): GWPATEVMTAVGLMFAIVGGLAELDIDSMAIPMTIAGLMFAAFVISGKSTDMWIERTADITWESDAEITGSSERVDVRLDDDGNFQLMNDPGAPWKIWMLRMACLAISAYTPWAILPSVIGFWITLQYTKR
Target sequence (P06935 1502-1679 limits assumed): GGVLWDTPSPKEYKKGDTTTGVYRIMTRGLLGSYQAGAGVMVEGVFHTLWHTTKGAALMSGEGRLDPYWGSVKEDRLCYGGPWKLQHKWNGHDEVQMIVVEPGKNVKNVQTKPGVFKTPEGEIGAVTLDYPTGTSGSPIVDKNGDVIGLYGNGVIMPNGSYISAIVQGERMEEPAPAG
MT1-MMP promoter = MT1-MMP gene expression reporter suppression – cell-based, luciferase reporter, luminescence (AID 618); MT1-MMP promoter luciferase reporter cells, luminescence; calls from a first round at 10 µM; hits with a dose series show EC50 in µM; actives 0.62% (n = 87,000);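 active = over half of the reporter light lost at 10 µM or EC50 under 50 µM; inactive = the rest and hits that failed the dose series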;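 note: actives suppress MT1-MMP promoter-driven transcription so potencies describe inhibitors; HT1080 fibrosarcoma cells; overnight exposure; toxic or luciferase-blocking compounds were not removed from the actives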
Hsc70 = small molecules displacing fluorescent ligand from Hsc70 – biochemical, fluorescence polarization, primary screen (AID 568). Hsc70 fluorescence polarization, probe displacement; higher % means a stronger effect; strong numbers were not always called active. one-dose displacement, % at 20 µM; IC50 in µM for titrated hits. 83,000 tested, under 10 active;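 active = displacement above 50% without optical interference and an IC50 on retest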;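 note: ATPase domain with a fluorescein-tagged ATP probe; 0% = vehicle and 100% = excess ADP; read after one hour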
* hit, by the source's call; i = inactive; x = not tested or not shown.

SMILES,WNV protease inh,MT1-MMP promoter,Hsc70
CCOC(=O)c1c(NC(=O)CSc2nnnn2-c2ccc3c(c2)OCO3)sc(C)c1C,0.62,i,0.6%
Cc1ccc(S(=O)(=O)Nc2nc3ccc(S(C)(=O)=O)cc3s2)cc1,-0.2,i,-2.4%
COc1ccc(N2CCN(Cc3nc4c(c(=O)n(C)c(=O)n4C)n3C(C)C(C)=O)CC2)cc1 (stereo unspecified),x,i,2.6%
CCCCn1c(SCC(=O)N2CCOCC2)nnc1-c1ccoc1C,x,i,0.8%
C/C(N)=C(/C#N)C(=O)CSc1nnnn1-c1ccccc1,x,i,1.2%
Cc1ccc(-c2cc(C(F)(F)F)c(C#N)c(SCCC#N)n2)o1,-0.55,i,-16.2%
Cc1onc(-c2ccccc2Cl)c1-c1nc(-c2ccccn2)no1,0.82,i,-3.6%
CCOc1ccc(NC(=O)CSc2nc(C)cc(C)n2)cc1,x,i,3.0%

Entries of single compounds as entered above.
`Cc1ccc(-c2cc(C(F)(F)F)c(C#N)c(SCCC#N)n2)o1` across the screens: WNV protease inh = -0.55; MT1-MMP promoter = i; Hsc70 = -16.2%
`Cc1onc(-c2ccccc2Cl)c1-c1nc(-c2ccccn2)no1` across the screens: WNV protease inh = 0.82; MT1-MMP promoter = i; Hsc70 = -3.6%

The main list resumes with the 4 entries that preceded the break.
SMILES,WNV protease inh,MT1-MMP promoter,Hsc70
C/C(N)=C(/C#N)C(=O)CSc1nnnn1-c1ccccc1,x,i,1.2%
Cc1ccc(-c2cc(C(F)(F)F)c(C#N)c(SCCC#N)n2)o1,-0.55,i,-16.2%
Cc1onc(-c2ccccc2Cl)c1-c1nc(-c2ccccn2)no1,0.82,i,-3.6%
CCOc1ccc(NC(=O)CSc2nc(C)cc(C)n2)cc1,x,i,3.0%
COC(=O)CSc1nnc(CNS(=O)(=O)c2ccc(Cl)cc2)n1C,x,i,-3.1%
Cc1ccc(NC(=O)CCNS(=O)(=O)c2ccc3c(c2)oc(=O)n3C)c(C)c1,2,i,-14.4%
COCCNC(=O)C(c1ccc(C)o1)N(Cc1ccco1)C(=O)c1snc(C(N)=O)c1N (stereo unspecified),x,i,5.3%
CC(c1ccccc1F)n1cc(C(=O)NCCCn2ccnc2)nn1 (stereo unspecified),x,i,-0.6%
COc1ccc(NS(=O)(=O)c2ccc(OCC(=O)N3CCCC3)cc2)cc1,0.6,i,-5.3%
Cc1ccccc1NC1C=CS(=O)(=O)C1 (stereo unspecified),0.88,i,5.0%
Cc1ccc(S(=O)(=O)c2cc3c(=O)n4cccc(C)c4nc3n(Cc3ccco3)c2=N)cc1C,0.93,i,-60.4%
CSc1nnc(Cn2c(=O)sc3ccccc32)n1C,-0.98,i,1.0%

(more compounds)
SMILES,WNV protease inh,MT1-MMP promoter,Hsc70
CC(NC(=O)NCc1cccnc1)(C(F)(F)F)C(F)(F)F,-0.75,i,-7.3%
Cc1ccc(S(=O)(=O)N2CCC(C(=O)N[C@H](C(=O)NCc3ccco3)C(C)C)CC2)cc1,-0.04,i,-1.6%
O=C(CN1C(=O)c2ccccc2C1=O)NCC1COc2ccccc2O1 (stereo unspecified),0.64,i,0.0%
COc1ccc(-c2cc3nc(C)c(CCC(=O)NCc4ccco4)c(C)n3n2)c(OC)c1,0.07,i,-2.1%
COC(=O)c1cc(Br)c(=O)n(CC(C)C)c1,1.79,i,-0.7%
O=c1[nH]c(N2CCN(c3ccccc3)CC2)nc2c1CCC2,1.27,i,14.3%
COc1ccc(OC)c(S(=O)(=O)Nc2cnc3ccccc3c2)c1,0.82,i,-0.7%
C/C(=N\NC(N)=S)C12CC3CC(CC(C3)C1)C2,x,i,0.4%

The list continues:
SMILES,WNV protease inh,MT1-MMP promoter,Hsc70
CCC(C)(C)n1nnnc1C(c1ccccc1OC)N1CCSCC1 (stereo unspecified),-0.49,i,0.1%
COCc1cc(C)nc(NCCc2ccccc2)c1C#N,x,i,-3.1%
COc1ccc(NC(=O)CSc2nc3ccccc3c(=O)n2CCNC(C)=O)c(OC)c1,-1.72,i,1.2%
CCCC(=O)c1ccc(N2CCN(C(=O)c3ccc(Br)cc3)CC2)c(F)c1,0.98,i,-5.7%
Cc1cccc(OCc2nnc(SCc3nc4cc(C(F)(F)F)ccc4c(=O)[nH]3)o2)c1,0.64,i,-55.7%
CC1CC(C)CN(CCCNC(=O)Cn2ncc3c(=O)oc4ccccc4c32)C1 (stereo unspecified),-0.31,i,-4.8%
O=S(=O)(Nc1cccc2c1ccc1cccn12)c1cccs1,x,i,5.1%
Cc1nc(CC(=O)N2CCN(S(=O)(=O)c3ccccc3C#N)CC2)cs1,1.39,i,-5.8%

Further structures follow.
SMILES,WNV protease inh,MT1-MMP promoter,Hsc70
Cc1cccc(N2CCN(C(=O)CS(=O)(=O)Cc3nc(-c4ccccc4F)oc3C)CC2C)c1 (stereo unspecified),-1.75,i,-4.6%
CC(c1ccccc1)C1C(C#N)=C(N)OC2=C1C(=O)CC(C)(C)C2 (stereo unspecified),-0.77,i,-3.6%
CCOc1cc(C2Nc3cccc4cccc(c34)N2)ccc1O,x,i,-3.3%
COc1ccc(OC)c(NC(=O)CSc2nc3cccnc3n2C)c1,-0.83,i,0.2%
CCCCC(=O)Nc1cccc(-c2cn3ccsc3n2)c1,-0.18,i,-1.0%
O=C(CSc1ncnc2sc3c(c12)CCCC3)c1ccccc1,x,i,0.5%
Cc1ccc(-n2c(SCC(=O)NCc3ccco3)nnc2-c2cccnc2)c(C)c1,-0.97,i,-3.7%
Cn1c(=O)n(C)c2cc(/C=N/n3cnnc3)ccc21,-0.41,i,1.9%

Further results.
SMILES,WNV protease inh,MT1-MMP promoter,Hsc70
O=C(NCN1CCCCC1)c1cccnc1,0.47,i,3.9%
CC(C)NC(=O)CSc1nnc(-c2ccco2)n1N,x,i,-4.3%
COc1ccc(Nc2nnc(SCC(=O)N3CCCC3)s2)cc1,x,i,-3.1%
O=C(CN1C(=O)C2CC=CCC2C1=O)NC1=NCCS1 (stereo unspecified),0.41,i,6.9%
CCOc1cccc(C(=O)Nc2cccc(-c3nnc(-c4ccccc4)o3)c2)c1,1.67,i,3.4%
CC(C)COc1ccc(-c2nnn(CC(=O)N3CCCC3)n2)cc1,0.29,i,1.1%
Cc1cc(NC(=O)C2CC(c3ccc(Cl)cc3)=NO2)no1 (stereo unspecified),x,i,1.7%
CN1c2ccccc2Oc2c(c(=O)n(C)c(=O)n2C)C1c1cccc([N+](=O)[O-])c1 (stereo unspecified),x,i,-2.1%

(listing goes on)
Second line of a record – WNV protease inh	MT1-MMP promoter	Hsc70
> CN(C)c1ccc(CN(C(=O)COc2ccc(Br)cc2)C2CCS(=O)(=O)C2)cc1 (stereo unspecified)
→ -0.41	i	-2.0%
> Cc1ccc(-n2ncc3c(=O)n(CC(=O)NC4CCCC4)cnc32)cc1C
→ -0.24	i	-1.3%
> CC(C)CNC(=O)c1ccccc1NC(=O)CN(c1ccc2c(c1)OCCO2)S(C)(=O)=O
→ 1.25	i	2.8%
> Cc1ccc(C)c(OCC(=O)N2CCOCC2)c1
→ x	i	5.6%
> O=C(c1c[nH]c2ccc(S(=O)(=O)N3CCOCC3)cc2c1=O)N1CCCC1
→ 1.63	i	-0.1%
> CCCN1Cc2cccc(C(=O)Nc3ccc4c(c3)OCO4)c2C1=O
→ -0.32	i	-2.0%
> CCSc1nnc(C)c2ccccc12
→ -0.19	i	-2.6%
> CCOC(=O)c1cnc2c(C)c(Cl)ccc2c1N1CCOCC1
→ -0.11	i	-0.4%
> O=C(CSc1nc2ccccc2c(=O)[nH]1)NCc1ccc(Cl)cc1
→ x	i	0.2%
> Cc1c(Cl)cccc1NC(=O)CCN1CCCCC1
→ -0.47	i	0.1%

(listing goes on)
Second line of a record – WNV protease inh	MT1-MMP promoter	Hsc70
> Cc1noc(C)c1CSc1nc2ccccc2n1CCc1ccccc1
→ -1.25	i	-2.0%
> COC(=O)c1cn(C(=O)c2ccccc2F)nc1N
→ -0.19	i	-2.0%
> COc1cccc(-n2c(SCC(=O)O)nnc2-c2cccnc2)c1
→ -1.92	i	1.8%
> Cc1cc(Cl)cc(Cl)c1OCCOc1cccc2cccnc12
→ x	i	-0.4%
> CCN(CC)C(=O)c1oc2ccc(S(=O)(=O)N3CCCCCC3)cc2c1C
→ x	i	6.3%
> Cc1cc(S(=O)(=O)NCCCN2CCOCC2)ccc1F
→ 0.29	i	-5.7%
> COc1ccc(C2=NOC(C(=O)NCC(C)C)C2)cc1 (stereo unspecified)
→ 1.19	i	-6.6%
> COc1cccc(-c2cc(C(=O)Nc3cccc(O)c3)no2)c1
→ -0.51	i	-2.6%
> CCOc1cc(S(=O)(=O)NCc2ccccc2)ccc1F
→ -0.4	i	-0.9%
> CC(Sc1nnc(Cc2cccs2)n1C1CCCCC1)C(N)=O (stereo unspecified)
→ x	i	4.5%

Continuation:
Second line of a record – WNV protease inh	MT1-MMP promoter	Hsc70
> COc1ccc(CCNC(=O)COC(=O)c2cnccn2)cc1
→ -0.91	i	-1.4%
> C=CCn1c(SCC(=O)C(C)(C)C)nnc1-c1cccs1
→ -0.01	i	3.1%
> CC1(C)CC(=O)N(c2ccccc2)C1(C)O (stereo unspecified)
→ 0.19	i	-4.3%
> CCCc1ccc(OCC(O)CN2CCN(c3ccccc3)CC2)cc1 (stereo unspecified)
→ -0.87	i	9.9%
> Cc1csc(SCC(=O)Nc2sc3c(c2C#N)CCC3)n1
→ x	i	-5.1%
> COc1cc(NC(=O)C2CCC(CNc3c(N4CCCCC4)c(=O)c3=O)CC2)cc(OC)c1 (stereo unspecified)
→ -0.82	i	3.0%
> COc1cc(S(=O)(=O)n2ccc(C)n2)c(OC)cc1Cl
→ x	i	-2.2%
> CCOC(=O)Cn1c(C(C)=O)nc2ccccc21
→ 1.15	i	-3.2%
> COc1ccc(NCc2nnc(SCC(=O)Nc3cc(C(F)(F)F)ccc3Cl)o2)cc1
→ 0.49	i	-4.6%
> COc1ccc2[nH]c(=O)c(CN(CCCN(C)C)C(=O)Nc3ccccc3)cc2c1
→ -1.06	i	5.9%

Further compounds.
Second line of a record – WNV protease inh	MT1-MMP promoter	Hsc70
> Cc1cc2c(c(=O)n1Cc1ccccn1)C(c1ccc3c(c1)OCO3)C(C#N)=C(N)O2 (stereo unspecified)
→ 0.57	i	-11.9%
> COc1cccc(C(=O)Nc2cccc(-c3nnc(-c4ccco4)o3)c2)c1
→ x	i	-1.2%
> COc1cccc(C(=O)NC2CC3CCCC(C2)N3CC(=O)Nc2ccc(N(C)C)cc2)c1 (stereo unspecified)
→ x	i	2.5%
> COc1cccc(-c2nnc(SCc3cccnc3)o2)c1
→ 0.79	i	0.2%
> CN(c1ccc(C(=O)NCc2ccco2)cc1)S(C)(=O)=O
→ 1.48	i	1.1%
> COC(=O)CNC(=O)COC(=O)c1cc(Cl)cc(Cl)c1N
→ 1.19	i	-5.6%
> O=C(NCCN1CCN(c2ccccc2F)CC1)C1c2ccccc2C(=O)N2CCc3ccccc3C12 (stereo unspecified)
→ -1.3	i	0.8%
> CC1CCN(C(=O)CNC(=O)Cn2ccc3ccccc3c2=O)CC1
→ 0.00539	i	1.6%
> CCN(CC)S(=O)(=O)c1cc(C(=O)Nc2ccccc2C(=O)O)ccc1OC
→ -0.01	i	9.4%
> CCCOc1ccc(CNC(=S)N/N=C/c2ccc([N+](=O)[O-])cc2)cc1
→ x	i	5.4%

Remaining list, next part:
Second line of a record – WNV protease inh	MT1-MMP promoter	Hsc70
> COC1(OC)N=C(NC(=O)Nc2ccccc2)C2(C#N)C(c3ccccc3)C12C#N (stereo unspecified)
→ -0.01	i	-2.8%
> CN(C(=O)c1ccccc1C(=O)c1ccccc1)C1CCS(=O)(=O)C1 (stereo unspecified)
→ -1.42	i	-6.0%
> C=CCn1c(C)c(C(C)=O)c(N2CCCC2)nc1=S
→ -0.01	i	-5.6%
> COC(=O)c1cc(NC2c3ccccc3C(=O)N2c2ccc(Cl)cn2)cc(C(=O)OC)c1 (stereo unspecified)
→ -0.39	i	-0.1%
> COC(=O)c1[nH]c(C)c(/C(O)=C2\C(=O)C(=O)N(CCN(C)C)C2c2ccc(C)o2)c1C (stereo unspecified)
→ -0.66	i	-4.2%
> Cc1ccc(C(=O)NCCN(C)C)c(C)c1
→ -0.18	i	3.8%
> CCOc1ccc(C)cc1S(=O)(=O)Nc1cccnc1
→ -0.37	i	-5.6%
> CC1=CC(=C(C#N)c2nc3ccccc3s2)C=C(C)N1Cc1ccco1
→ -0.93	i	1.9%
> c1ccc(CN(Cc2ccco2)C(c2ccncc2)c2nnnn2C2CCCC2)cc1 (stereo unspecified)
→ 1.06	i	-4.3%
> CS(=O)(=O)NCCSCc1ccc(Cl)cc1
→ 1.01	i	5.9%

The results go on:
Second line of a record – WNV protease inh	MT1-MMP promoter	Hsc70
> Cc1cc(N2CCN(C/C=C/c3ccccc3)CC2)n2ncnc2n1
→ -1.17	i	-8.6%
> CC(C)c1nnc(NC(=O)c2cccnc2)s1
→ x	i	4.6%
> CCN1CCN(c2ccc(NC(=O)c3cccnc3)cc2Cl)CC1
→ -0.66	i	-1.1%
> CC(=O)c1cc(-c2ccccc2)n(CC(=O)NCc2cccs2)c1C
→ -0.24	i	-1.6%
> CC(C)(C)CC(=O)Nc1ccc(Nc2ccccc2)cc1
→ x	i	2.6%
> COC(=O)c1cc(Cl)c(NS(=O)(=O)c2ccccc2)cc1OC
→ -0.62	i	-1.8%
